Source: PubChem BioAssay
PKD1 kinase inh: inhibitors of human PKD1 kinase, biochemical, fluorescence polarization | Serine/threonine-protein kinase D1 (Homo sapiens), Q15139 | PKD1 kinase fluorescence polarization assay | inhibition, %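 (about 10 µM by stock and volumes)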 | actives 0.056% (n = 200,000);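 active = inhibition of 50% or more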;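 also: controls were vehicle for no effect and a reference inhibitor for full effect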
Target sequence (Q15139 whole entry, looked up): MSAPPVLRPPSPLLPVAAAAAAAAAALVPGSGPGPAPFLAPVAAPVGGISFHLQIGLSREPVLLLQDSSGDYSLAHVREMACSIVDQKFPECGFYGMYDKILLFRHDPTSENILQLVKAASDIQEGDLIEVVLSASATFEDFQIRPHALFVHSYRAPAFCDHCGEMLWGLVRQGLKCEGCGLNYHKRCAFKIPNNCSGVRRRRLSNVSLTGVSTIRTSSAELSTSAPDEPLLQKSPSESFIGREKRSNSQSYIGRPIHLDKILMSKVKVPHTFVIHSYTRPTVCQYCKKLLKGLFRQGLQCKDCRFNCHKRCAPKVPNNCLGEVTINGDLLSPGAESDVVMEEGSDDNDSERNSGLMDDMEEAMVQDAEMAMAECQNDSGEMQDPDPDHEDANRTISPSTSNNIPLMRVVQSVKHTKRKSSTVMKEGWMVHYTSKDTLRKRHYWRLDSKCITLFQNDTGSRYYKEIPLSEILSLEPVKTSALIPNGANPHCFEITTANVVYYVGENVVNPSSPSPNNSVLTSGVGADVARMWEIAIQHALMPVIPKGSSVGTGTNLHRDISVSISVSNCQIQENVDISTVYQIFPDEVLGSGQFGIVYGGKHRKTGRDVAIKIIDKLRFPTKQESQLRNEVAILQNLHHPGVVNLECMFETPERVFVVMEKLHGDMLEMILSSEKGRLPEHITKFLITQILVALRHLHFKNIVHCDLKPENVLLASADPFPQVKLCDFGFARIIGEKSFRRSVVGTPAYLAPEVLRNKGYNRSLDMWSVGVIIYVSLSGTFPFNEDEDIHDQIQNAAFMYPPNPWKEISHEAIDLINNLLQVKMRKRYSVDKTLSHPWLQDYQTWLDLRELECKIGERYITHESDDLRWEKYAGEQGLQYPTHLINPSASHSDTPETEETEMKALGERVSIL
RGS16-Gao HTS: modulators of RGS16 binding to Galphao, primary screen, biochemical, human proteins, multiplexed bead flow cytometry | Regulator of G-protein signaling 16 (Homo sapiens) + Guanine nucleotide-binding protein … | bead-based flow cytometry RGS16-Galphao binding, fluorescence; actives lie on both sides | binding response (% of control), % at 10 µM | actives 0.38% (n = 220,000) | AID 1441, 2008;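 active = below 25% or above 175%, edge rows of some plates excepted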;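 also: Galphao activated by GDP with aluminum fluoride before binding; 100% = wells without compound and 0% = beads without RGS; some results beyond the cut were filed as inactive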
INS promoter inh: inhibitors of insulin promoter-driven GFP, primary screen, imaging, TRM-6 cells (human fetal islet line), eGFP reporter, cell count; reporter expression induced with tamoxifen; inhibition, % at 2 µM; actives 0.9% (n = 130,000); AID 1273, 2008;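 active = inhibition above the mean plus 3 SD, with well images judged a real hit on visual review, cut at about 60% in these data, passing the limit was not always enough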
HSV replic up: enhancers of HSV replication in host cells, fold increase, host cell viability; maximum fold increase; actives 0.005% (n = 220,000); HSV replication augmentation in cells; AID 1956, 2009;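 active = peak rise of 1.5-fold or more in the series; tested in PC3 cells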;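 also: first round at 10 µM; read as green reporter fluorescence; hits show the peak of a series up to 25 µM; 1 = signal of infected wells without compound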
GALR2 agonist: GALR2 receptor agonists, primary screen, cell-based; Galanin receptor type 2 (Homo sapiens), O43603; GALR2-expressing cells, agonist activation read-out; activation, %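 (tested at 5 µM)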; actives 0.48% (n = 140,000);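 active = above mean plus 3 SD of all compounds, about 5% in these data, not always enough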;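 also: 0% = vehicle buffer wells and 100% = reference agonist at full effect; tested in CHO reporter cells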
INS promoter inh cell count: further read-out of INS promoter inh, marked with its call; normalized cell count, %; measured here: cell count, toxicity; reference of the scale not given here;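 cells exposed to compound for 48 h; stained nuclei by imaging scaled within each plate; lower means fewer cells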
HSV replic up primary fold: second read-out of HSV replic up, no call of its own (marks repeat the call); fold increase; compound at 10 µM; measured here: primary screen fold increase 10 uM; tested in PC3 cells;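 GFP signal in the first replicate; 1 = infected wells without compound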
Starred values were filed as active, the others as inactive; i = inactive; · = no result given.

Start of the data: the first 2 entries, to show the layout:
SMILES	PKD1 kinase inh	RGS16-Gao HTS	INS promoter inh	INS promoter inh cell count	HSV replic up	HSV replic up primary fold	GALR2 agonist
O=C(COC(=O)C1(c2ccc(Cl)cc2)CCCC1)NCc1ccco1	2	102	·	·	i	0.98	·
COC(=O)c1cc(NC(=O)C2(S(=O)(=O)c3ccc(Cl)cc3)CC2)cc(C(=O)OC)c1	6	79	0	82	i	0.97	-0.5

Main list, from the first entry:
SMILES	PKD1 kinase inh	RGS16-Gao HTS	INS promoter inh	INS promoter inh cell count	HSV replic up	HSV replic up primary fold	GALR2 agonist
O=C(COC(=O)C1(c2ccc(Cl)cc2)CCCC1)NCc1ccco1	2	102	·	·	i	0.98	·
COC(=O)c1cc(NC(=O)C2(S(=O)(=O)c3ccc(Cl)cc3)CC2)cc(C(=O)OC)c1	6	79	0	82	i	0.97	-0.5
O=C(O)c1ccc(COc2ccc3ccccc3c2)o1	·	106	·	·	i	1.2	·
O=C(CSc1nc2ccccc2c(=O)n1NC(=O)Cc1ccccc1)NCCc1ccccc1	-3	102	-33	91	i	1.2	-1.3
COc1ccc(N/C=C/C(=O)C(F)(F)F)cc1	4	114	29	122	i	0.96	-0.7
CN(Cc1cccs1)C(=O)Cn1cnc2cc([N+](=O)[O-])ccc2c1=O	-7	92	·	·	i	1.1	·
N=C1S/C(=C\c2ccccc2F)C(=O)N1c1ccc(F)cc1	11	93	-100	120	i	1.1	0.0
Cc1ccccc1Cc1n[nH]c(=S)n1N	-2	106	·	·	i	1	-0.8
Cc1ccc(-n2[nH]c(C)c(/C=N/c3ccccn3)c2=O)cc1	4	89	·	·	i	1.1	-0.2
O=C(N/N=C/c1ccc(Cl)cc1)c1nc2ccc([N+](=O)[O-])cc2c(=O)[nH]1	4	99	-6	108	i	1	·
Cc1[nH]c2ccccc2c1-c1csc(NC(=O)CN2CCOCC2)n1	7	90	5	82	i	1.1	·
O=C(NC12CC3CC(CC(C3)C1)C2)c1ccc(-c2ccc(Cl)cc2)o1	1	129	19	44	i	0.94	0.1
O=C(NCC(c1cccnc1)N1CCN(c2ccccc2F)CC1)OCc1ccccc1 (centres undefined)	1	101	-49	54	i	0.88	-0.7
COC(=O)C(CC(C)C)NC(=O)c1ccc([N+](=O)[O-])cc1 (centres undefined)	1	93	-67	100	i	0.97	-2.1
CN(C)S(=O)(=O)c1ccc(N2CCCC2)c(C(=O)Nc2nc(-c3ccc(F)cc3)cs2)c1	-7	99	-12	60	i	0.73	-0.2
O=C(O)c1ccc(S(=O)(=O)Nc2ccc(O)c(Sc3nc4ccccc4s3)c2)cc1	5	102	·	·	i	0.92	·
Cc1ccc2ncnc(Nc3cccc(C(=O)O)c3)c2c1	3	98	·	·	i	1	·
C/C(=N\O)C1(C)N(O)C(C)(C)C(c2ccc(F)cc2)=[N+]1[O-] (centres undefined)	-5	103	17	57	i	1.1	-0.8
CCc1ccc(NC(=O)C(C)OC(=O)c2cccc(S(=O)(=O)N3CCc4ccccc4C3)c2)cc1 (centres undefined)	-2	106	·	·	i	0.95	-0.8
Cc1ccc(Cl)cc1NC(=S)N(Cc1ccco1)C(C)c1cccs1 (centres undefined)	-12	100	-17	110	i	0.99	·
O=C(CSc1nnc(-c2cccs2)n1Cc1ccccc1)N1CCc2ccccc2C1	-9	101	-10	117	i	0.97	0.7
Cc1cc(C(=O)Nc2nc(C)c(C(=O)N(C)C)s2)ccc1[N+](=O)[O-]	-1	115	3	100	i	1.1	0.5
Cc1c(Cl)cccc1NC(=O)Nc1cc(C(C)(C)C)nn1C	·	105	·	·	i	0.88	·
COC(=O)c1nn(-c2ccccc2)nc1-c1nn(-c2ccccc2)nc1C(=O)OC	-5	100	30	83	i	0.66	-3.9
Cc1ccc(NC(=O)CSc2nnc(Cc3ccccc3)o2)c(C)c1	-1	97	-7	78	i	1.1	·

(list continues)
SMILES	PKD1 kinase inh	RGS16-Gao HTS	INS promoter inh	INS promoter inh cell count	HSV replic up	HSV replic up primary fold	GALR2 agonist
CCCOc1ccccc1C1NC(=O)NC(C)=C1C(=O)OCCOC(C)C (centres undefined)	-9	99	·	·	i	1	-1.4
CSc1ccc(Cl)c(C(=O)NCCOc2cc(C)ccc2C(C)C)c1	-6	92	21	143	i	0.73	-3.0
CCOc1ccc(NC(=O)Cn2nnc(-c3ccccc3NC(=O)C3CC3)n2)cc1	-9	104	·	·	i	1	-0.8
CN1CCN(c2nc(-c3ccc(Br)cc3)nnc2-c2ccccc2)CC1	-2	102	28	70	i	0.82	-4.5
NS(=O)(=O)c1ccc(CCNC(=O)c2cccc([N+](=O)[O-])c2)cc1	-1	102	·	·	i	0.69	·
CC12CN3CC(C)(CN(C1)C3c1ccccc1F)C2 (centres undefined)	·	97	·	·	i	1.2	·
N#Cc1c(F)cccc1N1CCC(C#N)CC1	·	105	·	·	i	0.99	·
C[C@@H]1C=C(C(=O)N2CCN(Cc3ccccc3)CC2)O[C@H](OCc2ccc(CO)cc2)C1	-10	91	·	·	i	0.81	·
COc1ccc(CNc2cccc(F)c2)cc1Br	-4	100	-6	150	i	1.1	-1.3
Cc1csc(NC(=O)c2ccccc2O)n1	-14	102	16	111	i	0.93	-0.8
CN1CCC(N(C)C(=S)Nc2ccc(F)cc2)CC1	-7	98	·	·	i	0.94	·
Cc1ccc(NC(=O)C2C3/C=C\CCCCC32)cc1C (centres undefined)	1	102	·	·	i	0.93	-1.4
CCN(CC(=O)NCc1ccc(Cl)cc1)Cc1cc(=O)n2ccsc2n1	-6	103	-93	114	i	0.92	·
O=C(NCCN1CCOCC1)Nc1ccc(Cl)cc1Cl	-13	104	-90	65	i	0.69	-2.2
Oc1c(C(c2ccccn2)N2CCC(Cc3ccccc3)CC2)cc(Cl)c2cccnc12 (centres undefined)	-6	96	-43	76	i	0.8	·
O=C(COc1ccc([N+](=O)[O-])cc1Cl)NCC1CCCO1 (centres undefined)	2	98	·	·	i	0.97	·
COc1ccc(N2C(=O)CC(C#N)=C2N)cc1	3	109	0	103	i	0.95	·
O=C(N/C(=C\c1cccc([N+](=O)[O-])c1)C(=O)N(CCO)CCO)c1ccco1	-1	99	·	·	i	1	·
CC1CCCCN1CC(=O)NCc1ccc2c(c1)OCO2 (centres undefined)	-5	96	55	86	i	0.94	0.5
Cc1cccc(C)c1N1CCN(c2ccc3nnc(C(F)(F)F)n3n2)CC1	7	109	65	125	i	0.87	-0.5
Cn1c(=O)n(CC#N)c2ccccc21	9	108	·	·	i	0.86	0.8
CCOc1ccc(OCCOCCN2CCc3ccccc3C2)cc1	-2	101	·	·	i	1	-0.5
C=COCCNC(=O)Nc1ccc(Cl)cc1Cl	-1	72	66	109	i	1	-1.6
CC1=C(C)CC(C(=O)Nc2nc(-c3ccc(C)cc3C)c(C)s2)C(C(=O)O)C1 (centres undefined)	6	98	3	103	i	1	-0.2
O=C(Nc1ccccc1C(=O)OC1CCOC1=O)c1ccco1 (centres undefined)	7	88	-18	142	i	0.94	-0.2

Four compounds from above, arranged by the value under PKD1 kinase inh, falling.
mol	PKD1 kinase inh	RGS16-Gao HTS	HSV replic up primary fold	GALR2 agonist
Cn1c(=O)n(CC#N)c2ccccc21	9	108	0.86	0.8
Cc1ccc(NC(=O)C2C3/C=C\CCCCC32)cc1C (centres undefined)	1	102	0.93	-1.4
C=COCCNC(=O)Nc1ccc(Cl)cc1Cl	-1	72	1	-1.6
COc1ccc(CNc2cccc(F)c2)cc1Br	-4	100	1.1	-1.3

New compounds follow.
SMILES	PKD1 kinase inh	RGS16-Gao HTS	INS promoter inh	INS promoter inh cell count	HSV replic up	HSV replic up primary fold	GALR2 agonist
COc1ccc(C2CC(c3ccc(OC)cc3)n3nc(NC(=O)c4ccco4)nc3N2)cc1 (centres undefined)	-3	97	23	124	i	0.96	-2.2
O=C(COc1ccccc1-c1ccccc1)N/N=C/c1ccc2ccccc2c1	7	112	-162	7	i	0.65	6.8*
Cc1cccc(N2CCC(N3CCN(C4CCCCC4)C(CCO)C3)CC2)c1C (centres undefined)	-7	105	·	·	i	1.1	·
Cc1ccccc1NC(=O)CCN1C(=O)CSC1=O	-3	99	-262	71	i	0.95	-2.9
COc1ccc(NC(=O)CN(c2ccc([N+](=O)[O-])cc2)S(=O)(=O)c2ccccc2)cc1	-5	53	-19	45	i	0.7	-1.2
COc1cccc(C2C(C(=O)OCc3ccccc3)=C(C)Nc3ncnn32)c1OC (centres undefined)	6	99	·	·	i	1.1	-0.3
CCOC(=O)c1c(C)[nH]c(C(=O)OCC(=O)Nc2cc(Cl)ccc2OC)c1C	-3	93	46	97	i	0.57	-2.4
CC(C)(C)n1cc(S(=O)(=O)c2ccccc2)[nH]c1=O	-3	101	·	·	i	1	·
N#CCCN1CCN(C2=NC(=O)/C(=C\c3cccs3)S2)CC1	-2	99	33	109	i	0.95	·
CC1=C(C(=O)Nc2ccccc2C)C(c2ccc(C)o2)NC(=S)N1 (centres undefined)	-4	100	·	·	i	0.94	-1.9
Cc1cc([N+](=O)[O-])nn1CC(=O)c1ccccc1	4	101	·	·	i	0.94	·
CC1CCCCN1C(=O)c1ccc(NC(=O)c2ccccc2Cl)cc1 (centres undefined)	2	97	2	129	i	0.95	·
Cc1ccc(S(=O)(=O)N2CCOCC2)cc1C(=O)O	-15	106	-31	88	i	0.97	-1.0
CCOC(=O)C1(CCOc2ccccc2)CCN(Cc2ccc(COC)o2)CC1	3	102	·	·	i	1.1	·
CCN(CC)S(=O)(=O)c1ccc(NC(=O)COC(=O)c2cc(S(=O)(=O)Nc3ccc(OC)cc3)ccc2O)cc1	-6	102	·	·	i	1	·
Cc1cccc(OCc2nc3ccccc3c(=O)n2N)c1	-3	109	-19	105	i	1	-0.7
O=C(c1ccncc1)N1c2ccccc2Sc2ccccc21	-2	111	38	97	i	0.95	·
CSc1nsc(SCC(=O)N2CCN(c3ccccc3)CC2)n1	3	101	-27	125	i	1	-2.0
Cc1ccc(C(=O)Nc2cc(=O)n(C)c(=O)n2C)o1	0	48	i	47	i	0.87	-2.9
Cc1nn(Cc2ccc(Cl)cc2)c(C)c1NC(=O)c1c(-c2ccccc2)noc1C	-5	100	34	38	i	0.98	-0.6
CN(C)CCN(C(=O)c1cc(Cl)sc1Cl)c1nc2ccc(F)cc2s1	2	101	·	·	i	1	0.4
CCCCC(CC)c1nnc(NC(=O)c2cccs2)s1 (centres undefined)	-6	103	·	·	i	0.96	·
O=S(=O)(c1ccc(NC(=S)Nc2ccccc2)cc1)N1CCOCC1	-10	94	29	122	i	1.1	-1.3
CCOC(=O)c1cc(-c2ccccc2)n(CCC(=O)N2CCN(c3ccccn3)CC2)c1C	9	85	-9	78	i	1	0.6
O=C(CCSc1nc2ccccc2s1)N/N=C/c1c(O)ccc2ccccc12	-2	107	-4	75	i	0.54	0.1
CC(C)CN(C(=O)CN1CCN(S(=O)(=O)c2ccccc2)CC1)c1c(N)n(CC(C)C)c(=O)[nH]c1=O	-12	105	15	109	i	0.84	-0.5
O=c1cc(CO)oc(C(Nc2ccccn2)c2ccc(F)cc2)c1O (centres undefined)	-4	105	-38	175	i	1.1	-0.6
Cn1c(N)c(C(=O)COC(=O)c2cc(-c3ccco3)nc3ccccc23)c(=O)n(C)c1=O	12	90	-9	100	·	·	-0.7
CCOC(=O)c1ccc(NC(=O)CCC(=O)OC)cc1	-1	99	·	·	i	1	0.3

Pulled one by one from the list above:
SMILES	PKD1 kinase inh	RGS16-Gao HTS	INS promoter inh	INS promoter inh cell count	HSV replic up	HSV replic up primary fold	GALR2 agonist
O=C(CCSc1nc2ccccc2s1)N/N=C/c1c(O)ccc2ccccc12	-2	107	-4	75	i	0.54	0.1
CN(C)CCN(C(=O)c1cc(Cl)sc1Cl)c1nc2ccc(F)cc2s1	2	101	·	·	i	1	0.4
COc1ccc(NC(=O)CN(c2ccc([N+](=O)[O-])cc2)S(=O)(=O)c2ccccc2)cc1	-5	53	-19	45	i	0.7	-1.2
O=c1cc(CO)oc(C(Nc2ccccn2)c2ccc(F)cc2)c1O (centres undefined)	-4	105	-38	175	i	1.1	-0.6

Compounds as they come, and some 1.3% of all compounds hit somewhere here.
